Rango dissoc inh: prevents RanGTP from dissociating the Rango-importin beta complex. O95149+P62826. Biochemical FRET Rango-importin beta, RanGTP-induced dissociation. Potency, µM (doses to about 46.1 µM), without a hit: at the top dose activity change, negative = inhibition. 340,000 tested, 0.071% active. AID 540253; active means falling FRET ratio curve, often poorly fitted, with flat reads before Ran was added; inconclusive means other falling curves, or compound fluorescence or quenching; inactive means flat or rising ratio curve;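 note: potency is the fitted concentration of half-maximal effect; % of control where 0% means no effect; nearly all actives have a fitted effect of over 45% in size; -100% = wells without RanGTP and RCC1; the record marks most hits as doubtful in a second field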
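Rango (0.1 uM)–importin beta (0.25 uM) complex; RanGTP-RCC1 trigger; 45 min RT; CFP/YFP FRET read.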
miR-21 reporter: raises the signal of a miR-21 reporter; 340,000 tested, under 10 active; Potency, µM (doses to about 38.3 µM), for inactives: at the top dose reporter change, positive = more light; HeLa miR-21 FLuc reporter, luciferase, 48 h; active = well fitted rising curve with a large enough effect; inconclusive = small, poorly fitted or top-dose-only effect; inactive = no such curve, though single readings can be large or run the other way;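 note: % of control where 0% means no effect; miR-21 action dims this reporter so a rising signal means less miR-21 action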
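HeLa miR-21-FLuc reporter line, endogenous miR-21; 2000 cells/well in DMEM/10% FBS; compound titration up to ~40uM final, 48 h, 37 degree Celsius; luciferase detection reagent, 15 min lysis, CCD luminescence.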
Rango-impB inh: inhibitors of Rango-importin beta complex formation; Potency, µM (highest dose often 92.2 µM), inactives show at the top dose inhibition of complex formation; 340,000 tested, 0.031% active; Rango CFP/YFP FRET sensor + importin beta, 45 min; active = rising FRET ratio curve, often small or poorly fitted; inconclusive = mostly compound fluorescence or quenching in the first reads; inactive = flat curves in all reads;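 note: potency is the fitted concentration of half-maximal effect; 0% = DMSO wells and 100% = buffer wells lacking importin beta; nearly all actives have a fitted effect of over 15% in size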
Target sequence (Q14974 whole entry, looked up): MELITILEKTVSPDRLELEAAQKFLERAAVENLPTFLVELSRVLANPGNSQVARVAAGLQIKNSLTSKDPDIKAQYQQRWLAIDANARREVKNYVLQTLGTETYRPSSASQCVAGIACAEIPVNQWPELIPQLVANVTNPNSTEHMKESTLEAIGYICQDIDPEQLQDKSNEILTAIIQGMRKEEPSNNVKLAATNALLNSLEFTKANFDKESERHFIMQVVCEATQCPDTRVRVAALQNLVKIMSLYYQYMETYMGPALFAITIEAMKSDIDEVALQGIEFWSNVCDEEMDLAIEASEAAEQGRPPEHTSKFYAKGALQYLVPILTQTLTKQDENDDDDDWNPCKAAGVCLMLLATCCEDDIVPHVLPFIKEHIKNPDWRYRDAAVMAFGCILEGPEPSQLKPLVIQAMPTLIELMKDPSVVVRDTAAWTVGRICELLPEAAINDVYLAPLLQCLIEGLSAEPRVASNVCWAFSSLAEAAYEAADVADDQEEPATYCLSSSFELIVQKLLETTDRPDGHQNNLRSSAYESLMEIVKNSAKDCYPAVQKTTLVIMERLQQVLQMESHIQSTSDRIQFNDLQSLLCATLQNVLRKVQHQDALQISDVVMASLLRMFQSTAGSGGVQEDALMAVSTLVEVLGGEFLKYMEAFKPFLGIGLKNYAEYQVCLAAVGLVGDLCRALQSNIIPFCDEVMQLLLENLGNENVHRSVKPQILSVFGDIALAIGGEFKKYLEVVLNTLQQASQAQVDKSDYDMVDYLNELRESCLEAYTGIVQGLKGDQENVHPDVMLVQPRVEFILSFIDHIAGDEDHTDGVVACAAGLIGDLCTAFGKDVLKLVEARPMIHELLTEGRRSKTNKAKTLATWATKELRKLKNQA
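Inhibition scored from the CFP 486 nm/YFP 530 nm FRET ratio 45 min after adding 0.125 microM importin beta to 50 nM Rango biosensor preincubated 5 min with compound (room temperature, PBS with DTT, Tween-20, BSA). No-importin wells as positive control.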
GLA inh pH 4.5: blocks human alpha-galactosidase A at pH 4.5 | P06280 | purified enzyme, 4-MU-alpha-Gal fluorescence, pH 4.5 | activity change, negative = inhibition, % at 105 µM | 230,000 tested, under 10 active | AID 1467; inconclusive = small, poorly fitted or top-dose-only inhibition, or a rising curve; inactive = flat fitted curve, though single readings scatter; no compound was filed as active;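 note: 0% = full activity with enzyme and -100% = basal without enzyme; dose as in the result columns while the protocol names 77 µM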
An asterisk follows results filed as active; ? = inconclusive; . = no result given; & = joins results of further samples. These rows are one share of the data. The share of hits here may be higher or lower than overall.

Each structure is followed by: Rango dissoc inh, miR-21 reporter, Rango-impB inh, GLA inh pH 4.5
C=CCSc1nc(C)c2cc(C)cc(C)c2n1
→ 1.9%, -7.4%, 2.4%, -2.6
Cc1ccc(C(=O)Nc2cccc(NC(=O)c3ccc(C)o3)n2)o1
→ -3.9%, 4.4%, -0.9%, .
CN1/C(=C/c2cccc[n+]2CCO)Sc2ccccc21
→ 0.7%, 4.5%, -2.1%, .
O=C(COc1ccccc1Cl)Nc1ccccc1C(=O)N1CCOCC1
→ -8.9%, -28.9%, -1.5%, .
O=C(CSc1nc2ccccc2c(=O)n1NC(=O)Cc1ccccc1)NCc1ccco1
→ 17.4%, -6.5%, -4.8%, -2.3
Cc1nc2ccccc2c(=O)n1NC(=O)c1cccc(Cl)c1
→ -1.3%, 0.6%, -1.3%, .
O=C(Nc1cccc(NC(=O)c2ccc(-c3cccc(Br)c3)o2)c1)c1ccco1
→ -18.5%, 12.2%, -7.5%, 1.9
Cn1c(SCC(=O)NCc2ccc3c(c2)OCO3)nnc1C1COc2ccccc2O1 (stereo not given)
→ 13.7%, -1.0%, -2.1%, -2.9
Cc1ccc(-c2cc(-c3ccc4c(c3)OCO4)c(C#N)c(N)n2)o1
→ -14.7%, -1.3%, ?, -0.5
O=C(O)c1ccc(/C=N\Nc2ccccn2)cc1
→ 14.9%, ., 0.2%, .
CCOc1cccc(C(=O)Nc2cccc(C(=O)NC(C)(C)C)c2)c1
→ 1.9%, -7.1%, 0.0%, -2.0
O=[N+]([O-])c1cccc(N=Cc2ccccc2)c1
→ -19.8%, ., -1.2%, .
CCC(NC(=O)c1ccccc1NC(=O)c1ccccc1)C(=O)NNC(=O)c1cccnc1 (stereo not given)
→ -10.7%, 1.3%, -3.0%, -24.3
C/C(CC(=O)N1CCCC1)=N\NC(=O)c1cc2ccccc2cc1O
→ -26.8%, 17.3%, ?, -7.3
C/C(=N\NC(=O)c1cccc(S(=O)(=O)N2CCOCC2)c1)c1ccc(C#N)cc1
→ 18.0%, -11.0%, 0.6%, .
Cc1cccc(NC(=O)c2ccccc2OCC(=O)c2ccccc2)c1
→ -7.8%, -4.7%, 0.9%, 0.9
CCOCCc1nnc(NC(=O)c2cccc(F)c2)s1
→ -6.0%, -33.8%, ?, 2.6
Cc1cc(=O)n2nc(N3CCC(C(=O)NCc4ccc(F)cc4)CC3)sc2n1
→ -11.1%, -6.0%&-9.1%, 2.2%, .
Cc1cc(Nc2cccc(F)c2)n2nc(C)nc2n1
→ 8.6%, -3.2%, 0.5%, 11.2
COc1ccc(-c2cc(C(=O)O)sc2C)cc1
→ -2.4%, -5.2%, 3.0%, -1.1
CC(=O)OC1CC(c2cc(C(C)(C)C)c(O)c(C(C)(C)C)c2)=NO1 (stereo not given)
→ 16.4%, 10.2%, 2.4%, 0.7
CCOC(=O)N1CCN(c2cc(=O)n(-c3cccc(Br)c3)c(=O)[nH]2)CC1
→ 0.5%, -1.1%, 0.4%, -2.6
C[C@@H](NC(=O)[C@@H]1Cc2ccccc2CN1C(=O)OC(C)(C)C)C(=O)NCC1CCCO1 (stereo not given in full)
→ -7.0%, -2.4%, 0.2%, .
CC(C)OP(=O)(OC(C)C)C(O)c1cccc([N+](=O)[O-])c1 (stereo not given)
→ -11.8%, 11.3%, -2.2%, 5.0
Cc1cc2nnc(SCC(=O)NCC3CCCO3)n2c2ccccc12 (stereo not given)
→ -1.7%, 5.2%, 0.3%, 3.1
COc1ccc(-c2c(C3=CCCCC3)oc3ccc(-c4ccc5c(c4)OCO5)cc23)cn1
→ 6.7%, ., 1.8%, .
COc1cccc(N2C(=NC(=O)C3CCCO3)SC3CS(=O)(=O)CC32)c1 (stereo not given)
→ 4.1%, -1.0%, 0.6%, .
COc1ccc(N2CCN(C(=O)COC(=O)CNC(=O)c3ccc(Cl)cc3Cl)CC2)cc1
→ 14.4%, ., -1.5%, .
CCCn1c(SC(C)C(=O)NC2CC2)nnc1-c1ccncc1 (stereo not given)
→ -13.3%, ., -4.3%, .
Cc1ccc(S(=O)(=O)CCC(=O)N(C)C2CCCCC2)cc1
→ 19.8%, -16.5%, 3.3%, .
CN(C)S(=O)(=O)c1ccc(C(=O)NCC(=O)N/N=C/c2ccccc2)cc1
→ 16.4%, -0.9%, -0.2%, -2.2
CCn1c(Cn2nnc(-c3ccccc3)n2)nnc1SCC(=O)Nc1cccc(C)c1C
→ -22.5%, 6.8%, -0.5%, 1.4
Cc1ccc(C(=O)OCC(=O)N2CC(=O)Nc3ccccc32)s1
→ 1.3%, -3.0%, -1.3%, 6.2
O=S(=O)(Nc1ccc(N2CCOCC2)cc1)c1ccc(Cl)s1
→ 2.1%, -3.5%, -2.0%, 11.4
COC(=O)c1ccc(N2CCN(C)CC2)c(NC(=O)c2ccc(-c3ccc(Cl)cc3)o2)c1
→ 4.6%, 0.1%, -0.7%, .
COC(=O)c1ccc2c(=O)n(C3CCCCC3)c(SCC#N)nc2c1
→ 3.9%, 4.1%, -5.3%, 3.8
Cc1ccc(Cn2c(C)nc3ccc([N+](=O)[O-])cc3c2=O)cc1
→ -1.3%, 0.8%, -2.1%, .
COc1ccc(-c2c(C#N)c(SCC(=O)c3cc4ccccc4oc3=O)nc(C)c2C(=O)Nc2ccccc2)cc1
→ -22.8%, -4.3%, -1.9%, 2.4
Fc1ccc(CSc2nc3ccccc3[nH]2)cc1
→ -7.5%, -28.7%, -1.2%, 3.4
Cn1c(SCC#N)nc2ccccc2c1=O
→ ?, -0.9%, -3.8%, -4.2
Cn1cccc1C(=O)OCC(=O)Nc1sccc1C#N
→ 16.7%, ., -2.6%, .
O=C(O)c1ccc(N/N=C/C2=Cc3ccccc3OC2)cc1
→ ?, -78.6%, ?, -14.6
CCCN(CCC)CCCNC(=O)c1ccc2c(c1)N(CC)C(=O)c1ccccc1S2=O (stereo not given)
→ 16.7%, -5.0%, -1.7%, 3.6
CCCCNC(=O)CN(CCc1ccccc1)S(C)(=O)=O
→ 24.1%, -2.2%, 1.5%, 1.5
CC1CCCC(NC(=O)NC(=O)COC(=O)c2ccc(O)cc2O)C1C (stereo not given)
→ 42.6%, ., 2.5%, .
Cc1ccc(C(=O)ON=C2CCN(S(=O)(=O)c3ccccc3)CC2)cc1
→ -14.1%, -2.8%, 1.1%, -0.7
CCOC(=O)[C@H]1[C@H]2COc3ccc(Cl)cc3[C@@H]2N2C(=O)c3ccc(F)cc3NC(=O)[C@@]12C
→ 0.2%, ., 4.6%, .
O=C(CN1CCN(Cc2ccccc2)CC1)Nc1ccc(Br)cc1
→ 8.9%, -3.3%, 7.8%, .
CCC(C)[C@@H](C(=O)Nc1ccc2c(c1)OCO2)N1Cc2ccccc2C1=O (stereo not given in full)
→ 8.7%, -11.6%, -0.9%, -8.8
COC(=O)C(NC(C)=O)(Nc1sc2c(c1C(N)=O)CCCC2)C(F)(F)F (stereo not given)
→ 5.0%, -2.7%, 2.5%, -3.9

Going on with the list.
Each structure is followed by: Rango dissoc inh, miR-21 reporter, Rango-impB inh, GLA inh pH 4.5
COc1cc(-c2noc(C)c2C(=O)NCCCN2CCCC2=O)cc(OC)c1OC
→ -5.1%, ., -1.4%, .
COc1cccc(CNS(=O)(=O)c2ccc3c(c2)N(C(C)=O)CCO3)c1
→ ?, 0.1%, 2.0%, .
Cn1cc(Br)c(C(=O)N2CCCCCC2)n1
→ -18.6%, -3.5%, ?, .
COCCNC(=O)c1cc(S(=O)(=O)N2CCCCC2)ccc1N1CCOCC1
→ -21.1%, ., 4.3%, .
CCCCNC(=S)N(CCN(CC)CC)Cc1cc2cc3c(cc2[nH]c1=O)OCO3
→ 4.9%, -5.6%, -2.0%, .
Nc1ccc(C(=O)NC2CCSc3ccccc32)cc1[N+](=O)[O-] (stereo not given)
→ -17.3%, 2.5%, 0.8%, .
COc1ccc(N(C)C(=O)C2CCN(S(=O)(=O)c3cccc4nonc34)CC2)c(OC)c1
→ -6.3%, 7.5%, -5.0%, .
OC1(c2ccc(F)cc2)CCN(Cc2nnnn2Cc2cccs2)CC1
→ 0.9%, -10.7%, 5.0%, 4.7
CN(C)c1ccc2c(c1)C(=NO)c1ccccc1-2
→ 2.5%, ., -1.4%, .
COCC(=O)N1CCC(Oc2ccc(C(=O)N3C[C@H]4CC[C@H]3C4)cc2)CC1
→ -1.8%, -3.8%, -3.5%, .

One compound at a time, as listed above:
Profile of Cn1c(SCC#N)nc2ccccc2c1=O : Rango dissoc inh: ?; miR-21 reporter: -0.9%; Rango-impB inh: -3.8%; GLA inh pH 4.5: -4.2
Profile of O=C(Nc1cccc(NC(=O)c2ccc(-c3cccc(Br)c3)o2)c1)c1ccco1 : Rango dissoc inh: -18.5%; miR-21 reporter: 12.2%; Rango-impB inh: -7.5%; GLA inh pH 4.5: 1.9

The results go on:
Each structure is followed by: Rango dissoc inh, miR-21 reporter, Rango-impB inh, GLA inh pH 4.5
Cc1cccc(C)c1N1CCN(S(=O)(=O)N2CCOCC2)CC1
→ -27.1%, 0.2%, ?, 1.7
NC(N)=Nc1cc2ccccc2c2ccccc12
→ ., 19.3%, ., -6.5
CC(C)Oc1ncnc2c1[nH]c1ccccc12
→ -10.6%, 3.2%, -2.2%, -17.0
COc1ccc(Sc2nc(-c3ccccn3)ncc2OC)cc1
→ -9.2%, 29.3%, 6.3%, 1.7
CN(Cc1nccn1C)C(=O)c1ccc2nc(Cc3ccccc3F)oc2c1
→ -14.8%, -55.9%, ?, .
CC1CC(Nc2ccccc2)c2ccccc2N1C(=O)c1cccnc1 (stereo not given)
→ -13.3%, 19.8%, 6.6%, 3.0
Cc1ccc(C)c(CSc2nnc(-c3ccccn3)n2N)c1
→ -2.8%, -6.5%, 3.4%, -24.2
Cc1ccc(-c2nc(CS(=O)CC(=O)N3CCN(c4ccc(F)cc4)CC3)c(C)o2)cc1 (stereo not given)
→ 33.6%, ?, 0.4%, .
CCn1c(=NC(=O)CS(=O)(=O)c2ccc(F)cc2)sc2cccc(OC)c21
→ -22.8%, ., 1.4%, .
CC(=O)NCCn1c(SCC(=O)NCCC(C)C)nc2ccccc2c1=O
→ -0.1%, 0.3%, -2.7%, 0.4
CCCCN(Cc1cc2cc(OC)ccc2[nH]c1=O)C(=O)c1ccco1
→ -0.1%, -2.8%, -1.7%, 1.5
O=C(O)c1ccccc1N(Cc1ccccc1)C(=O)CO/N=C/c1ccccc1
→ -6.4%, -9.1%, -0.6%, 1.4
CCOC1CCCCC1NS(=O)(=O)c1ccc(Cl)cc1 (stereo not given)
→ 1.4%, 0.9%, 0.0%, 4.4
O=C(CCC(=O)c1ccccc1)Nc1ccccc1
→ 6.3%, ., -1.0%, .
Cn1c(SCC(=O)Nc2cccc(S(=O)(=O)NC3=NCCCCC3)c2)nnc1-c1ccccc1
→ 3.4%, 0.0%, 0.2%, -3.8
N#C/C(=N\Nc1ccc(Br)cc1)C(=N)N1CCOCC1
→ 28.3%, -69.4%, -2.4%, -11.9
Cc1cc(C(=O)NCC(c2cccs2)N2CCOCC2)ccc1[N+](=O)[O-] (stereo not given)
→ -0.5%, 18.4%, -0.5%, .
O=C(CNC(=O)c1ccc(Br)cc1)NCC(=O)OCc1ccc(Cl)cc1
→ 3.3%, 4.5%, -2.3%, 5.5
COc1cccc(-n2c(SCC(=O)NCCC3=CCCCC3)nc3n[nH]c(C)c3c2=N)c1
→ 15.5%, 4.6%, -2.7%, 6.7
Cc1cccc(NC(=O)Cn2c(=O)oc3cc(S(=O)(=O)N4CCCC4)ccc32)n1
→ 54.7%, 3.4%, ?, .
O=C(Nc1nnc(C2=COCCO2)o1)c1ccc([N+](=O)[O-])cc1
→ 0.3%, -3.4%, -0.1%, .
O=C(O)c1ccc(CSc2nnc(SCc3ccccc3)s2)cc1
→ -7.5%, -8.9%, 2.2%, 2.6
COc1ccc(CNC(=O)/C=C/c2ccco2)cc1OC
→ -2.5%, -5.7%, -0.1%, -2.7
Cn1nc(C(=O)NC2=NCCS2)ccc1=O
→ 0.9%, -2.0%, -0.9%, 9.3

From PubChem
